PINK1 expr mod – modulators of PINK1 expression; Potency, µM (top dose mostly 76.6 µM), for inactives: top-dose activation (PINK1 increase), actives largely listed as activators; 0.2% of 410,000 active; PINK1 immunofluorescence, high-content cytometry, 24 h; active = well fitted activation curve with a large enough effect; inconclusive = small, poorly fitted or top-dose-only effect; inactive = flat fitted curve, though single readings scatter; cell line not stated here;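 further: potency means the concentration at half of the fitted maximal effect; % of control where 0% means no effect; nearly all actives have a fitted effect of over 65% in size; a mitochondrial uncoupler was the plate control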
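Compound titrations (5 concentrations, 24 h) on a stable cell line; DMSO and CCCP controls. Endpoint: fixed-cell PINK1 immunofluorescence with mitochondrial, cell and nuclear markers, scanned by microplate cytometer.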
TRPML1 blocker – blocks the human TRPML1 channel; Q9GZU1; TRPML1-inducible cells, Ca2+ dye fluorescence, FDSS; hits give low values; inhibition of EC80 agonist-evoked calcium signal; activity change, negative = inhibition, % (no concentration beside the values); 0.02% of 390,000 active; AID 624415; in the data active means activity change below about -50%; inconclusive means about -30% to -50%; inactive means above about -30%;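 further: stimulus is agonist 54-4 at its EC80 concentration; on the % scale 0 is the no-effect control and ±100 the full control effect; compound concentration not given in the record; the text of the record puts the active cut at -80%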
Target sequence (Q9GZU1 whole entry, looked up): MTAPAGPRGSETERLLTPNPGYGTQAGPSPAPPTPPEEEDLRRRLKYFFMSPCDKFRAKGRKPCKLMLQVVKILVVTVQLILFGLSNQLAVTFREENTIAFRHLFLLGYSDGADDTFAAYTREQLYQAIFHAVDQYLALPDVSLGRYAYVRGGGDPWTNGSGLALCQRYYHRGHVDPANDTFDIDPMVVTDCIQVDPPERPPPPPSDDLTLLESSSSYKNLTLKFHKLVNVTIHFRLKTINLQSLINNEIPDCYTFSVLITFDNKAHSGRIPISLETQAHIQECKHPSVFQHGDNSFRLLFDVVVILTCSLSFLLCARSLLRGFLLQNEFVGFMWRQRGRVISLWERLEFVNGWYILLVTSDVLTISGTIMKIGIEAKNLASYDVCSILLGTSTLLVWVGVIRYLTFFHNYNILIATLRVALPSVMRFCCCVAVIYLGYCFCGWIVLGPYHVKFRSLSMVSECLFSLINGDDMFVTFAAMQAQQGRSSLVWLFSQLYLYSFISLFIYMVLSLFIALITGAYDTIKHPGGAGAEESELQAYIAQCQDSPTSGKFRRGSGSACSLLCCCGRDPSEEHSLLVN
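Calcium fluorescence in TRPML1-DL cells induced overnight with Tet: a 110 s read after compound pin addition, then a 110 s antagonist read after challenge with 54-4 at 4 uM final (EC80).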
D2 agonist – activates the human D2 dopamine receptor. 0.084% of 360,000 active. AID 624465. DiscoveRx PathHunter D2 beta-arrestin, luminescence, 90 min; 100% = 57 uM dopamine signal. activation, % (concentration not given with the values). P14416; in the data active = activation above about 40%; inconclusive = about 15% to 40%; inactive = below about 15%; further: compound concentration not given in the record; the text of the record calls up to 30% inactive
Target sequence (P14416 whole entry, looked up): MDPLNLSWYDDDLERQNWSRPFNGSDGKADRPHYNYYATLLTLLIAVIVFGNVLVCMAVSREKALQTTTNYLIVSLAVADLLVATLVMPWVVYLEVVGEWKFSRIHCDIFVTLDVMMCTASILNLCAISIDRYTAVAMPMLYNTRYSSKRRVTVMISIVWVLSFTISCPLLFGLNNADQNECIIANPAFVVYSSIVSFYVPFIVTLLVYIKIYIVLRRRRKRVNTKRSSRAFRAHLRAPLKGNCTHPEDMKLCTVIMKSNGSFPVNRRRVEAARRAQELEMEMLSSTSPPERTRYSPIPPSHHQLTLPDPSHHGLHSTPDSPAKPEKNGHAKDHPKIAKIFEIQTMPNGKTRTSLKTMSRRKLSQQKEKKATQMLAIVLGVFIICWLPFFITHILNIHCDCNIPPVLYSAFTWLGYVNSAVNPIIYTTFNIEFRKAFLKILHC
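Agonist mode: compounds alone added to overnight-plated D2 PathHunter cells for 90 min at 37 C, with 57 uM final dopamine (EC100) defining full response. Beta-arrestin recruitment detected by chemiluminescent reagent, read after 1 h at ambient temperature.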
Six1-Eya2 blk – blocks human Six1 binding to Eya2; AID 651725; Q15475+O00167; AlphaScreen GST-Six1/His-Eya2 binding, biochemical; hits give low values; control for the full effect not named in the record; activity change, % (concentration not given with the values); 0.56% of 360,000 active; in the data active = activity change below about -65%; inconclusive = about -30% to -65%; inactive = above about -30%; further: on the % scale 0 is the no-effect control and ±100 the full control effect
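Compounds are tested against tagged Six1 and Eya2 proteins bridged by glutathione donor and nickel acceptor beads; after a one-hour incubation at 37 °C without light, AlphaScreen emission is recorded.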
CtBP-E1A blk – inhibitors of CtBP/E1A interaction; AlphaScreen GST-E1A/His-CtBP binding, 1536-well; hits give low values; control for the full effect not named in the record; AID 651724; 0.49% of 340,000 active; activity change, % (test concentration not listed); in the data active means activity change below about -65%; inconclusive means about -30% to -65%; inactive means above about -30%; further: on the % scale 0 is the no-effect control and ±100 the full control effect; compound concentration not given in the record
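Homogeneous bead-based format: GST-tagged E1A captured on glutathione donor beads, His-tagged CtBP on nickel acceptor beads; compounds precede bead addition by 2 h at 37 °C.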
TRPML1 agonist – activates the human TRPML1 channel; Q9GZU1; TRPML1-expressing cells, Ca2+ dye fluorescence, FDSS; host cell line not named in the record; reference of the full effect not given here; activation, % (concentration not given with the values); 0.12% of 410,000 active; AID 624414; in the data active = activation above about 50%; inconclusive = about 30% to 50%; inactive = below about 30%; further: 0% is about no effect; the text of the record puts the active cut at 80%
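Tetracycline-induced TRPML1-DL cells are seeded and incubated overnight before loading with a no-wash Ca2+ dye and quencher. Agonist activity is taken from the 110 s fluorescence read following compound pin-transfer on an FDSS, before EC80 54-4 challenge.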
* marks the source's active call; other numbers are inactive results; ? = inconclusive; . = not tested or not shown; [ ] = remark or other dose.

| canonical_smiles | CtBP-E1A blk | PINK1 expr mod | Six1-Eya2 blk | D2 agonist | TRPML1 agonist | TRPML1 blocker |
| --- | --- | --- | --- | --- | --- | --- |
| Cc1ccc(NC(=S)Nc2ccc3[nH]c(=O)[nH]c3c2)cc1 | -2.7 | 1.1% | -1.6 | -2.7 | . | . |
| Cc1nc(N/N=C\c2ccc3c(c2)OCO3)sc1C | -7.5 | 1.1% | -11.2 | ? | 0.1 | 20.2 |
| CC1CCCN(S(=O)(=O)c2ccc(S(=O)(=O)N3CCCC3)cc2)C1 (stereo not given) | 4.2 | 1.7% | 0.7 | -3.0 | 1.1 | 7.3 |
| CC1=C(C(=O)Nc2ccccc2)C(c2cccs2)n2nc(SCc3ccccc3F)nc2N1 (stereo not given) | . | 1.2% | . | . | -0.4 | -4.1 |
| CCOC(=O)C1CCN(CC(=O)Nc2cc(C)c3c(=O)oc4ccccc4c3n2)CC1 | . | 1.0% | . | . | -0.3 | -8.4 |
| CC(C)c1cc(=O)n2[nH]c(SCc3ccccc3)nc2n1 | 5.9 | 1.6% | 9.4 | 4.5 | -0.5 | -7.3 |
| CCOC(=O)N1CCN(S(=O)(=O)c2c(C)nn(C)c2C)CC1 | 6.9 | -0.3% | 4.1 | -0.2 | 0.9 | 5.3 |
| COC(=O)c1cc(NC(=O)Cn2nc(-c3ccc(C)c(C)c3)ccc2=O)cc(C(=O)OC)c1 | . | 4.5% | . | . | -0.2 | -9.7 |
| COc1ccc(C2C3=C(CCCC3=O)Nc3nc(-c4cc(OC)c(OC)c(OC)c4)nn32)cc1OC (stereo not given) | -0.1 | 14.7%[38.3 µM] | 1.2 | -0.4 | -0.5 | -2.2 |
| CC1(C)C2CCC(C2)C1(C)NC(=O)CN1CCCC1 (stereo not given) | 9.4 | 4.1% | 4.0 | 3.6 | 0.1 | 9.1 |
| CCOc1cc(N2CCOCC2)c(OCC)cc1NC(=O)CSc1ncn[nH]1 | 8.6 | 3.8% | 12.2 | -4.3 | 0.0 | 31.8 |
| O=C(Cn1c(-c2cccs2)cc2cc(F)ccc21)NCCCN1CCN(c2ccc(F)cc2)CC1 | . | 2.5% | . | . | -0.2 | 26.9 |
| CCOc1ccc(C2c3c(oc4ccc(C)cc4c3=O)C(=O)N2CCCN(C)C)cc1 (stereo not given) | . | 1.2% | . | . | -0.6 | -12.6 |
| CCCS(=O)(=O)NC(=O)C1(C)CCCN(C(=O)c2ccc(C(F)(F)F)cc2)C1 (stereo not given) | 2.6 | 0.0% | 4.5 | -4.6 | -0.7 | . |
| COc1cc(C(=O)NCCC(=O)NCCCN2CCCCC2)cc(OC)c1OC | 14.2 | 1.2%[38.3 µM] | 0.1 | 1.5 | -0.4 | 5.7 |
| COc1cc(C=C2Cc3ccccc3C2=O)cc(OC)c1OC | 2.6 | 4.0% | -5.4 | 4.6 | -1.3 | . |
| COCCCNC(=O)CNC(=O)c1nn(-c2ccc(OC)cc2)c(=O)c2ccccc12 | 7.5 | 3.9% | -3.7 | -3.1 | 1.1 | 26.2 |
| CCCOc1ccc(CN(C(=O)c2nc(SC(C)C)ncc2Cl)C2CCS(=O)(=O)C2)cc1 (stereo not given) | . | 0.2% | . | . | 0.9 | 16.1 |
| CCCCN(C=O)c1c(CC)nc2ccc(C(=O)N3CCN(C(C)=O)CC3)cn12 | 6.5 | 2.1% | 1.3 | -4.1 | -0.4 | . |
| O=C(CN1CCN(C(=O)c2c(F)cccc2F)CC1)Nc1ccccc1C(F)(F)F | . | 3.3% | -0.9 | -0.1 | 0.9 | -7.1 |
| O=c1cc(N2CCCC2)c2ccccc2o1 | 4.2 | 0.3% | -0.8 | -1.6 | 0.5 | 6.1 |
| CC1(C)COC2(OC1)C(=O)Nc1ccccc12 | -2.0 | -0.1% | -4.0 | -2.7 | -0.1 | -1.7 |
| c1ccc(C[C@H]2CNCCN2CCc2cccc3ccccc23)cc1 | -12.1 | 0.2% | 0.6 | -2.5 | -0.2 | -8.8 |
| O=C(Nc1cc(Sc2nc3ccccc3s2)cc([N+](=O)[O-])c1)c1ccccc1 | -12.6 | 3.7% | -18.3 | 6.6 | 0.7 | 9.6 |
| CCCCN1CC(=O)N2[C@H](c3ccc(Cl)cc3)[C@@H]3C(=O)N(CC)C(=O)[C@@H]3[C@]2(C)C1=O | 0.9 | 1.9% | -0.6 | -4.3 | -0.4 | 4.1 |
| Cc1nc2cccnc2n1C1CCN(C(=O)Nc2ccc(Cl)cc2)CC1 | . | 2.5% | . | . | 0.0 | -18.7 |
| Brc1ccccc1-c1cnco1 | 10.6 | -0.5% | -2.0 | 0.0 | -0.6 | 12.6 |
| Cc1ccc(-c2ccc(CCC(=O)O)n2-c2cccc(C)c2C)cc1 | . | -1.1% | . | . | -0.3 | 0.6 |
| O=C1CC2(CCCCC2)CC(=O)N1CCc1ccccc1 | 11.4 | 2.7% | 10.0 | -0.1 | 4.1 | 3.5 |
| CCOc1ccc(NC(=O)Nc2cc(C(C)C)c(O)cc2C)cc1 | -9.4 | 10.9% | -1.2 | 1.4 | 2.1 | 16.7 |

The list goes on; it opens with the 4 that closed the last part.
| canonical_smiles | CtBP-E1A blk | PINK1 expr mod | Six1-Eya2 blk | D2 agonist | TRPML1 agonist | TRPML1 blocker |
| --- | --- | --- | --- | --- | --- | --- |
| Brc1ccccc1-c1cnco1 | 10.6 | -0.5% | -2.0 | 0.0 | -0.6 | 12.6 |
| Cc1ccc(-c2ccc(CCC(=O)O)n2-c2cccc(C)c2C)cc1 | . | -1.1% | . | . | -0.3 | 0.6 |
| O=C1CC2(CCCCC2)CC(=O)N1CCc1ccccc1 | 11.4 | 2.7% | 10.0 | -0.1 | 4.1 | 3.5 |
| CCOc1ccc(NC(=O)Nc2cc(C(C)C)c(O)cc2C)cc1 | -9.4 | 10.9% | -1.2 | 1.4 | 2.1 | 16.7 |
| Cc1cccc(C(=O)N/N=C/c2ccc(OCC(=O)N3CCCCC3)cc2)c1 | 1.3 | 5.6%[38.3 µM] | -1.3 | 2.9 | 0.5 | 3.0 |
| CC1=CN2C(=NC(=O)CC2(C)C(=O)N(CC(=O)NC2CCCC2)Cc2ccc(Cl)cc2)C=C1 (stereo not given) | -18.7 | 1.5% | -0.6 | -4.6 | -0.5 | 6.6 |
| COCCNC(=O)/C(C#N)=C/c1cc(C)n(-c2ccc(C)cc2)c1C | . | 0.2% | -29.0 | 1.1 | 2.9 | 13.1 |
| COC(=O)CNC(=O)Cc1c(F)cccc1Cl | 2.6 | -2.3%[38.3 µM] | 2.2 | -0.9 | 1.1 | -24.2 |
| CN(CCc1ccccn1)C1CCCN(S(=O)(=O)c2ccc(F)c(Cl)c2)C1 (stereo not given) | -1.5 | -0.8% | -2.8 | -5.8 | -0.9 | 6.2 |
| COc1ccccc1/C=C1\SC(=S)N(CCC(=O)Nc2ccc(C(=O)O)c(O)c2)C1=O | -20.4 | 4.4% | -6.9 | -1.0 | 2.3 | -10.8 |
| Cc1cc(NS(=O)(=O)Cc2ccccc2)cc(C)c1OCC(=O)N1CCOCC1 | -1.1 | -2.0% | -1.3 | -3.0 | -1.5 | -3.2 |
| CCCCC(Nc1ncnc2ccccc12)C(=O)O (stereo not given) | 3.3 | -1.5%[38.3 µM] | 4.9 | 0.1 | -0.5 | -4.7 |
| CCn1cnc2c1c(=O)n(CC(=O)OC(C)C(N)=O)c(=O)n2Cc1ccccc1 (stereo not given) | -5.5 | 1.3% | 10.7 | -2.7 | 0.5 | 25.6 |
| COc1ccc(Cl)cc1NC(=O)CN(C)CC(=O)Nc1ccccc1-c1ccccc1 | 0.7 | 0.6% | -19.5 | -3.7 | 0.0 | -7.4 |
| Cc1ccc(S(=O)(=O)NCc2ccc(C(=O)NCCCN3CCN(C)CC3)cc2)cc1 | 5.1 | -1.0% | 0.5 | 2.0 | 0.0 | -13.9 |
| CSc1ncc(C(=O)Nc2c(C)cccc2C)c(-c2ccccc2)n1 | . | 6.4% | . | . | 1.0 | 8.0 |
| COc1ccc(C(=O)NC2CCCCC2)cc1S(=O)(=O)N1CCOCC1 | 2.5 | 1.9% | 3.4 | 2.9 | -0.1 | 2.0 |
| C[C@@H]1CN([C@H](C)CO)S(=O)(=O)c2ccc(Br)cc2O[C@@H]1CN(C)Cc1ccc(-c2ccccc2)cc1 | -8.0 | 7.5% | -13.0 | -9.8 | 0.5 | 14.1 |
| CC(=O)Nc1ccc(S(=O)(=O)NCC(=O)OCC(=O)N2CC(C)OC(C)C2)cc1 (stereo not given) | 1.1 | 0.2% | 2.2 | -0.8 | 1.0 | 11.6 |
| CCCCNC(=O)C1(C)CCN1Cc1cc(C)ccc1C (stereo not given) | 4.6 | 1.9% | 0.6 | -6.0 | -1.3 | . |
| Cc1cc(C)c(NC(=O)CSc2nnc(-c3ccccn3)n2N)c(Cl)c1 | ? | -1.1% | ? | 1.5 | 1.5 | 14.4 |
| Cc1ccc(C2CC(=O)NC(SCCC(C)C)=C2C#N)cc1 (stereo not given) | 0.8 | 9.6% | -1.2 | 1.7 | 0.4 | 13.3 |
| COc1cc(C(=O)Nc2sc3c(c2C(=O)O)CCC(C)C3)cc(OC)c1OC (stereo not given) | 4.9 | 4.3% | -4.4 | -2.4 | 1.4 | 3.1 |
| CCOC(=O)c1nc2cc3n(c(C)c-2c1C)C(C)C(CC)=C3C (stereo not given) | -5.3 | 2.1% | -18.3 | -4.5 | -0.3 | -9.7 |
| COc1ccc(-c2cn3c(n2)sc2cc(C(=O)NCCCN4CCN(C)CC4)ccc23)cc1 | . | -0.5% | . | . | 1.1 | -25.5 |
| Cc1cc(C(=O)CS(=O)(=O)c2ccc(Cl)cc2)cc(C)c1O | . | -0.2% | 3.9 | -4.4 | 1.8 | 10.6 |
| O=C(COc1c(Br)cc(Br)c2cccnc12)N1CCCCC1 | -6.9 | 5.4% | -11.8 | 3.1 | -0.3 | -9.6 |
| O=C(COC(=O)/C=C/c1ccc(Cl)c(Cl)c1)NC1CCCC1 | 1.3 | 1.6% | 5.8 | 12.9 | 2.2 | -18.5 |
| Cc1ccccc1NC(=O)C(C)n1c2ccccc2c2nc(=O)cc(C)n21 (stereo not given) | . | 0.0% | -2.3 | -1.7 | -0.4 | 3.5 |
| Cc1nc(C(F)(F)F)c(C(=O)NC(=O)Nc2ccc(OC(F)(F)F)cc2)s1 | 0.0 | 12.5% | 5.9 | -2.0 | -0.7 | -3.3 |
| CCCN(CC1CC1)C(=S)Nc1ccc(Oc2ccccc2)cc1 | -2.8 | 18.2% | -4.6 | -3.9 | -0.7 | 35.5 |
| Cc1ccccc1OCCNC(=O)/C=C/c1ccccc1 | 8.4 | 1.1% | -2.0 | -4.1 | 0.7 | 10.7 |
| Cc1cccc(C)c1NC(=O)CN1CCC(Cc2ccccc2)CC1 | 2.1 | 2.4% | 6.4 | 2.8 | 0.5 | . |
| O=C(NCCc1ccc(Cl)cc1)c1cc(=O)[nH]c2ccccc12 | -4.9 | 0.3% | 8.8 | -4.9 | 0.0 | 25.3 |
| C=CCn1c(SCc2csc(C)n2)nc2sc3c(c2c1=O)CCCC3 | 9.4 | 3.3% | 1.4 | 2.6 | 2.5 | 3.4 |
| CC(=O)Nc1cc2ccc(OC(C)=O)cc2oc1=O | 7.4 | 3.8% | 2.3 | -5.6 | 0.2 | -9.7 |
